Vaccinia pol inh = blocks vaccinia virus processive DNA synthesis; 46,000 compounds, 0.94% hits; in vitro processive DNA synthesis, absorbance read-out; stronger effect = lower value; some inactives read as strong as hits; normalized absorbance, % (test concentration not listed);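 active = replicate mean up to 90% and picked by the depositor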;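 note: 100% = median of the test wells of a plate; 100 nL library stock went into each well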
Active calls of the source: *.

SMILES	Vaccinia pol inh
O=C(CCC(=O)N(Cc1ccccc1)Cc1ccccc1)Nc1ccc(F)cc1	99
CC(C)(C)c1cc(=O)[nH]c(SCc2ccccc2)n1	99
O=C(O)CCc1cc(Cl)no1	89
CC(C)NC(=O)C1CN(S(=O)(=O)c2ccccc2)CCN1S(=O)(=O)c1ccccc1 (stereo not given)	100
CCCn1cnc2c(N)c(C)c(C)cc21	110
O=C(COC(=O)COc1ccccc1F)NC1CC1	106
COC(=O)C(NS(=O)(=O)c1ccc(N2CCCC2=O)cc1)c1ccccc1 (stereo not given)	98
c1ccc(CN2CCc3nc4ccccc4cc3C2)cc1	117
Nc1ccc(Br)cc1C(=O)c1ccccc1	100
Cc1ccc(SCC(=O)Nc2nncs2)cc1	100
O=C(NC(=S)NC12CC3CC(CC(C3)C1)C2)c1ccccc1	102
O=C(Cn1cc(/C=C2/C(=O)Nc3ccccc32)c2ccccc21)NCC1CCCO1 (stereo not given)	88
CC(C)Sc1nnc(Cc2cc(=O)[nH]c(=O)[nH]2)n1-c1ccc(F)cc1	98
O=C(CCCC(=O)Oc1ccccc1F)Nc1cccc2ccccc12	101
COc1cc(C(F)(F)F)nc2ccc(C)c(NC(=O)c3ccc(Cl)cc3)c12	107
O=C(CCCn1c2ccccc2c2cn[nH]c(=O)c21)NCCc1ccccc1	99
O=C(Nc1ccccc1)N1CCc2c([nH]c3ccccc23)C1C(F)(F)F (stereo not given)	92
Cc1ccc(S(=O)(=O)N(CCC(=O)O)Cc2ccccc2)cc1	77
Cc1n[nH]c(=S)n(/N=C/c2ccccc2)c1=O	97
S=C(NC1CCCCC1)NN1CCOCC1	100
CC1(C)CC(=O)C(/C=N/n2cnc3ccccc3c2=O)=C(O)C1	100
NC(=O)Cc1ccc(NC(=O)CCC(=O)O)cc1	100
O=C1C(=O)N(CCCn2ccnc2)C(c2cccc(Br)c2)/C1=C(\O)c1ccccc1 (stereo not given)	100
CCN1C(=O)c2ccccc2S(=O)c2ccc(C(=O)N(C)C3CCCCC3)cc21 (stereo not given)	103
O=C1CCCC2=C1C(c1ccccc1F)n1ncnc1N2 (stereo not given)	96
CCC1CCc2nc3sc(C(=O)Nc4cc(Cl)ccc4OC)c(N)c3cc2C1 (stereo not given)	100
Cc1sc2c(c1C)-c1nc(SCC(=O)C(C)(C)C)ncc1S(=O)(=O)N2C	103
CC(C)CSc1nc2c(cnn2-c2ccccc2)c(=O)[nH]1	100
Cc1cc2nnc(SCC(=O)O)n2c2ccccc12	97
CN(C)c1ccc(/C=C/C=C/c2cc[n+](C)cc2)cc1	93
Cc1nc2ccc(C(=O)O)cc2s1	103
C[N+]1(CCOCC2CCC[N+]3(C)CCCCC23)CCCCC1 (stereo not given)	98
Fc1ccc(CNCc2ccccn2)cc1	105
N#Cc1c2c(c(Nc3ccccc3)n3c1nc1ccccc13)CCC2	100
Cc1nc(N2CCCC2)[nH]c(=O)c1Cc1c(F)cccc1Cl	107
O=C(Nc1cccc(NC(=S)NC(=O)c2ccco2)c1)c1ccccc1	100
Brc1cnc(N2CCCCC2)nc1N1CCOCC1	100
Cc1c(C)c(C)c(CSC2=NCC(C)N2)c(C)c1C (stereo not given)	79
COc1ccc(N2C(=O)CC(N3CCSCC3)C2=O)cc1 (stereo not given)	118
CC(=O)Nc1cccc(NS(=O)(=O)c2ccc(C)cc2)c1	100
c1ccc2c3c(c(CN4CCCC4)cc2c1)COC3	100
C1CCCCCC2(CCCCC1)OCC(CN1CCCCC1)O2 (stereo not given)	99
Cc1ccc(NC(=O)c2ccccc2C(=O)O)cc1Br	91
N#Cc1cc(N)ccc1Sc1ccccc1	98
c1ccc(CNc2ncnc3sc4c(c23)CCCC4)cc1	100
O=C(CCn1nc(-c2ccccc2)ccc1=O)NC1CC1	110
N#CC1=C2SCC(O)(c3ccccc3)N2C(=O)CC1c1cccs1 (stereo not given)	100
CCn1c(=O)n(CC(=O)N2CC(C)CC(C)C2)c(=O)c2ccccc21 (stereo not given)	102
CCCCn1c(NCc2ccccn2)nc2ccccc21	99
CC(=O)N1c2ccccc2C2(O)N=C(C)SC12 (stereo not given)	99
CC(C)c1ccccc1Oc1coc2cc(OCC(=O)NC3CCCCC3)ccc2c1=O	100
CCCCN(C)Cc1c(O)ccc2c(=O)c(-c3ccccc3OC)c(C(F)(F)F)oc12	100
CC12CCC(C(=O)Nc3cccc4cccnc34)(CC1=O)C2(C)C (stereo not given)	97
Cc1cc(C)nc(SCCS(=O)(=O)c2ccc(C(C)(C)C)cc2)n1	100
CC(C)C1C(C=C(Cl)Cl)C1C(=O)N1CCN(Cc2ccccc2)CC1 (stereo not given)	105
CCCc1[nH]nc2c1C(c1c(Cl)noc1C)C(C#N)=C(N)N2c1ccccc1 (stereo not given)	101
CCCOc1cc(C(N)=O)ccc1OC	98
COc1ccc(CCC(=O)Nc2ccc3nc(N4CCC(C)CC4)cc(C)c3c2)cc1	94
COc1ccccc1-c1nnc(NC(=O)c2ccccc2)o1	101
COc1ccccc1/C=C1/SC(=S)NC1=O	98
(list continues)
SMILES	Vaccinia pol inh
CN1C(=O)N(c2ccc(Cl)cc2)C(C)(O)CC1(C)C (stereo not given)	106
Cc1sc2nc3c4ccccc4c(N4CCC(C)CC4)nn3c(=O)c2c1C	100
CC(=O)n1c(O)c(/C=C2\C=c3ccc(C)cc3=NC2=O)sc1=N	100
C(=Nc1cccnc1)c1c[nH]c2ccccc12	101
CN(C)c1ccc(CNc2nc3ccccc3n2CCN2CCCCC2)cc1	98
CCC(C)NC(=O)Cn1cnc2c1c(=O)n(C)c(=O)n2C (stereo not given)	100
CCOc1ccc(N(C(C)C(=O)N(C)Cc2ccccc2)S(C)(=O)=O)cc1 (stereo not given)	100
CC1CCc2nc(NC(=O)c3ccc(F)c(F)c3)sc2C1 (stereo not given)	111
CCOC(=O)CCc1c(C)nn(-c2ccc(N3CCOCC3)nn2)c1C	103
COc1ccc(-c2csc(NC(=O)CCOc3ccccc3)n2)cc1	100
COc1ccc(N=Cc2ccc(Sc3ccccn3)o2)cc1	100
O=C(COC(=O)c1cc[n+]([O-])cc1)Nc1ccccc1Cl	102
Cn1c(=O)c2c(ncn2CC(=O)Nc2ccncc2)n(C)c1=O	100
Cc1nc(SCCC(=O)O)c2c3c(sc2n1)CCCC3	82
CN(C)CCC(C)(O)Cc1ccccc1 (stereo not given)	96
CCOc1cc(/C=C2\C(=O)Nc3ccccc32)ccc1O	101
CC(NC(=O)Cc1cccs1)C(c1cccs1)N1CCN(C)CC1 (stereo not given)	99
CC(Sc1cn(CCNC(=O)c2cccs2)c2ccccc12)c1ccccc1 (stereo not given)	96
CC1CCCCN1S(=O)(=O)c1ccc(C(=O)O)cc1 (stereo not given)	100
Cc1cc(C)c(-c2nnc(NC(=O)CSC3=NCCS3)s2)c(C)c1	96
CSc1c(C#N)c(-c2cccs2)nn1CNC(=O)Nc1ccccc1C(F)(F)F	89
CCSc1nnc2n(/N=C/c3cccs3)cnn12	100
OC1(C(F)(F)F)NN=C2C=Cc3ccccc3N21 (stereo not given)	95
NC(=O)COC(=O)c1cncc(Br)c1	98
CCC(C(=O)NC1CCC(C)CC1)n1c2ccccc2c2cn[nH]c(=O)c21 (stereo not given)	99
CC1CCCC(NC(=O)/C=C2\Sc3ccccc3NC2=O)C1C (stereo not given)	102
COc1ccccc1CNC(=O)c1cc(C)c2c(C)nn(-c3ccccc3Cl)c2n1	98
CNc1ccccc1C(C)(C)c1cc(-c2ccco2)n[nH]1	98
COC(=O)c1cc(=O)n(C)c(=Nc2ccc(F)cc2)s1	101
O=C(C1CCCN(S(=O)(=O)c2ccccc2)C1)N1CCCCC1 (stereo not given)	97
C[N+]1(Cc2ccco2)Cc2ccccc2C1	100
Cc1ccc(NC(=O)CSc2nc3c(sc4ccccc43)c(=O)n2CC2CCCO2)cc1C (stereo not given)	101
Oc1ccc(Br)cc1C=NCC12CCC3CC(CC(C3)C1)C2	100
O=C(OCCn1ncc2ccccc2c1=O)c1ccc(F)cc1Cl	92
O=C(CCc1nnc2n(Cc3ccc(F)cc3)c(=O)c3ccccc3n12)NC1CCCCCC1	93
COC(=O)c1c(CSC(=N)N)nc2n(Cc3ccccc3)c3ccccc3n12	99
N#Cc1nc(-c2ccccc2)oc1NCc1ccco1	96
Cc1ccc(S(=O)(=O)N(C)/N=C/c2cccc(Br)c2)cc1	100
CCOc1ccc(C(=O)N2CCCC2)cc1	100
CC(C)(C)NC(=O)N1CCN(c2nc(-c3ccccc3)ns2)CC1	66*
COc1ccc(CC(=O)Nc2nc(-c3ccccc3)cs2)cc1	100
O=C(c1ccccc1)c1c(CS(=O)(=O)c2ccc(C(F)(F)F)cn2)[nH]n(-c2ccccc2)c1=O	102
CN(C)CC#Cc1cncc(C(=O)NN)c1	91
O=C(Nc1ccccc1)N(O)c1ccc(Cl)cc1	101
Clc1cccc(Oc2ncnc3sccc23)c1Cl	98
O=C(Nc1c(C(=O)N2CCCCC2)cnn1-c1ccccc1)c1ccccc1	100
c1ccc(N=c2scc(-c3cccs3)n2-c2ccccc2)cc1	100
Clc1ncc(CN2CCCc3ccccc32)s1	100
O=C(O)CCc1nc2cc(Cl)ccc2n(Cc2ccccc2)c1=O	99
CCOC(=O)c1cccc(NC(=O)CNC(=O)C2CCCCC2)c1	97
CCC1SC2=NCCN2C1(O)c1ccc(Cl)cc1 (stereo not given)	100
O=C(Nc1c2c(nn1-c1ccc(Cl)cc1)CSC2)c1ccc(C(=O)c2ccccc2)cc1	100
COc1ccc(Br)cc1C(=O)CCC(=O)O	101
CCCC(NS(=O)(=O)c1ccc(C)cc1)C(=O)O (stereo not given)	101
O=C(Nc1cccc(C(F)(F)F)c1)C(SCCO)c1ccccc1 (stereo not given)	102
COC(=O)CC(c1ccc(O)cc1)N1Cc2ccccc2C1=O (stereo not given)	107
CCOC(=O)C1=C(C)OC(N)=C(C#N)C1c1cccnc1 (stereo not given)	120
Cc1ccc(N2NC(=O)/C(=C/C=C/c3ccco3)C2=O)cc1C	100
CN(C)CCOC(=O)c1ccc2[nH]c3c(c2c1)CSCC3	58*
CN1CCN(S(=O)(=O)c2cccc3cccnc23)CC1	99

24 consecutive compounds out of the list so far, quoted:
SMILES	Vaccinia pol inh
O=C(OCCn1ncc2ccccc2c1=O)c1ccc(F)cc1Cl	92
O=C(CCc1nnc2n(Cc3ccc(F)cc3)c(=O)c3ccccc3n12)NC1CCCCCC1	93
COC(=O)c1c(CSC(=N)N)nc2n(Cc3ccccc3)c3ccccc3n12	99
N#Cc1nc(-c2ccccc2)oc1NCc1ccco1	96
Cc1ccc(S(=O)(=O)N(C)/N=C/c2cccc(Br)c2)cc1	100
CCOc1ccc(C(=O)N2CCCC2)cc1	100
CC(C)(C)NC(=O)N1CCN(c2nc(-c3ccccc3)ns2)CC1	66*
COc1ccc(CC(=O)Nc2nc(-c3ccccc3)cs2)cc1	100
O=C(c1ccccc1)c1c(CS(=O)(=O)c2ccc(C(F)(F)F)cn2)[nH]n(-c2ccccc2)c1=O	102
CN(C)CC#Cc1cncc(C(=O)NN)c1	91
O=C(Nc1ccccc1)N(O)c1ccc(Cl)cc1	101
Clc1cccc(Oc2ncnc3sccc23)c1Cl	98
O=C(Nc1c(C(=O)N2CCCCC2)cnn1-c1ccccc1)c1ccccc1	100
c1ccc(N=c2scc(-c3cccs3)n2-c2ccccc2)cc1	100
Clc1ncc(CN2CCCc3ccccc32)s1	100
O=C(O)CCc1nc2cc(Cl)ccc2n(Cc2ccccc2)c1=O	99
CCOC(=O)c1cccc(NC(=O)CNC(=O)C2CCCCC2)c1	97
CCC1SC2=NCCN2C1(O)c1ccc(Cl)cc1 (stereo not given)	100
O=C(Nc1c2c(nn1-c1ccc(Cl)cc1)CSC2)c1ccc(C(=O)c2ccccc2)cc1	100
COc1ccc(Br)cc1C(=O)CCC(=O)O	101
CCCC(NS(=O)(=O)c1ccc(C)cc1)C(=O)O (stereo not given)	101
O=C(Nc1cccc(C(F)(F)F)c1)C(SCCO)c1ccccc1 (stereo not given)	102
COC(=O)CC(c1ccc(O)cc1)N1Cc2ccccc2C1=O (stereo not given)	107
CCOC(=O)C1=C(C)OC(N)=C(C#N)C1c1cccnc1 (stereo not given)	120

Next entries follow:
SMILES	Vaccinia pol inh
Cc1ccccc1C(=O)Nc1cc(C)c2c(=O)oc3ccccc3c2n1	85
COc1ccccc1OCc1ccc(C(=O)NCC(C)C)o1	100
O=c1oc2ccc(Br)cc2cc1-c1ccc2c(c1)OCCO2	106
CCN1C(=O)/C(=C\c2ccc(C(C)C)cc2)SC1=S	101
CCOC(=O)CCc1ccc(OCc2ccccc2)c(I)c1	100
O=C(COc1ccc(-c2nnc(N3CCCCC3)c3ccccc23)cc1)N1CCCCC1	98
Cc1ccc2c(c1)c1c(n2CC(O)CNCc2ccccc2)C(=O)CCC1 (stereo not given)	88
CCCC(=O)Nc1nc2ccc(S(=O)(=O)N3CCCCC3)cc2s1	97
Cc1ccc(N(Cc2ccc(C(=O)O)cc2)S(C)(=O)=O)cc1C	100
COCCn1c(=NC(=O)CCc2ccccc2)sc2cc(NC(C)=O)ccc21	110
CC1CN=C(Nc2cccc3ccccc23)S1 (stereo not given)	100
C=CCSc1ncc2c(=S)[nH]c(=S)[nH]c2n1	103
Cn1c2c(c3cc(Oc4ccccc4)ccc31)CCCC2=O	100
CCC(=O)N1N=C(C(F)(F)F)CC1(O)c1ccc(F)cc1 (stereo not given)	98
CSc1sc(SC)c(CO)c1CO	101
CC(=O)c1c(O)c(C)c(O)c(Cc2c(O)c3c(c(C(=O)/C=C/c4ccccc4)c2O)OC(C)(C)C=C3)c1O	98
COc1ccc(C(=O)N2CCN(c3ccc(Cl)c(Cl)c3)CC2)cc1OC	109
C=C1SC(Nc2ccc(C)cc2)=NC1(C)C	106
O=C(NCc1ccccc1)c1c(O)c2ccccc2[nH]c1=O	101
CCOC(=O)CSc1nc2c(cc1C#N)CCCC2	100

Bioassay records as filed in PubChem.

Not all compounds are listed (hit frequency here may not be typical).
